Screening data deposited in PubChem by National Center for Advancing Translational Sciences (NCATS).
Rango release inh: qHTS Assay for Inhibitors of RanGTP induced Rango (Ran-regulated importin-beta cargo) - Importin beta complex dissociation; Biochemical FRET Rango-importin beta, RanGTP-induced dissociation; actives 0.071% (n = 340,000); Snurportin-1 (Homo sapiens) + GTP-binding nuclear protein Ran (Homo sapiens) + Importin …; Potency, µM (doses to about 46.1 µM), without a hit: at the top dose activity change, negative = inhibition; active means falling FRET ratio curve, often poorly fitted, with flat reads before Ran was added; inconclusive means other falling curves, or compound fluorescence or quenching; inactive means flat or rising ratio curve;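 note: potency is the fitted concentration of half-maximal effect; % of control where 0% means no effect; nearly all actives have a fitted effect of over 45% in size; -100% = wells without RanGTP and RCC1; the record marks most hits as doubtful in a second field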
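FRET read at 45 min, room temperature: inhibitors block the CFP/YFP signal rise when RanGTP (0.6 uM Ran, 2 mM GTP, 0.2 uM RCC1) frees Rango (0.1 uM) from importin beta (0.25 uM). Pre-read after 5 min compound exposure flags interference.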
Rango-impB inh: qHTS Assay for Inhibitors of Rango (Ran-regulated importin-beta cargo) - Importin beta complex formation | Importin subunit beta-1 (Homo sapiens), Q14974 | Potency, µM (highest dose often 92.2 µM), without a hit: top-dose inhibition of complex formation | actives 0.031% (n = 340,000) | Rango CFP/YFP FRET sensor + importin beta, 45 min | AID 540263, 2011; active = rising FRET ratio curve, often small or poorly fitted; inconclusive = mostly compound fluorescence or quenching in the first reads; inactive = flat curves in all reads;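 note: potency is the fitted concentration of half-maximal effect; 0% = DMSO wells and 100% = buffer wells lacking importin beta; nearly all actives have a fitted effect of over 15% in size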
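FRET biosensor Rango (snurportin 1 IBB between N-terminal EYFP and C-terminal Cerulean), 50 nM in PBS/1 mM DTT/0.02% Tween-20/0.1% BSA, preincubated 5 min RT with compound; 0.125 microM importin beta added, 45 min RT, CFP/YFP FRET ratio read.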
miR-21 reporter: qHTS Assay for Modulators of miRNAs and/orActivators of miR-21; HeLa miR-21 FLuc reporter, luciferase, 48 h; Potency, µM (top dose mostly 38.3 µM), for inactives: at the highest dose reporter change, positive = more light; 340,000 tested, under 10 active; active = well fitted rising curve with a large enough effect; inconclusive = small, poorly fitted or top-dose-only effect; inactive = no such curve, though single readings can be large or run the other way;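 note: % of control where 0% means no effect; miR-21 action dims this reporter so a rising signal means less miR-21 action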
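Luminescence from a firefly luciferase reporter carrying a miR-21 binding site downstream, stably expressed under a CMV promoter in HeLa cells that make miR-21 endogenously, reports miRNA modulation after 48 h compound exposure up to approximately 40uM final.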
GLA inh pH 4.5: qHTS Assay for Inhibitors of Human alpha-Galactosidase at pH 4.5. activity change, negative = inhibition, % at 105 µM. AID 1467, 2008. Alpha-galactosidase A (Homo sapiens), P06280. 230,000 tested, under 10 active. purified enzyme, 4-MU-alpha-Gal fluorescence, pH 4.5; inconclusive = small, poorly fitted or top-dose-only inhibition, or a rising curve; inactive = flat fitted curve, though single readings scatter; no compound was filed as active;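 note: 0% = full activity with enzyme and -100% = basal without enzyme; dose as in the result columns while the protocol names 77 µM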
Target sequence (P06280 whole entry, looked up): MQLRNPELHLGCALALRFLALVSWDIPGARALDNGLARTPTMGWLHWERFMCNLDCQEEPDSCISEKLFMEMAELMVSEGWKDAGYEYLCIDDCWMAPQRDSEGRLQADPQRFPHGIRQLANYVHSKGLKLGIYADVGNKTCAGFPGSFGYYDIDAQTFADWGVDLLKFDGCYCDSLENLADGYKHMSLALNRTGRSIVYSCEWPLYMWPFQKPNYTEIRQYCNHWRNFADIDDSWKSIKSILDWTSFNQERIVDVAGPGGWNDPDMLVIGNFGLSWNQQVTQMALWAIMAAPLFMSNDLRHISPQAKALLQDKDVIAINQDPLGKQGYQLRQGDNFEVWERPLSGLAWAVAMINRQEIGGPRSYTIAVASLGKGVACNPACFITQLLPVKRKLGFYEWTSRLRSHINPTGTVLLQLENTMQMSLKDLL
Numbers without * were called inactive; [ ] = another dose, or the depositor's remark. Not all compounds are listed (hit frequency here may not be typical).

`CCOC(=O)CCP(=O)(O)C(O)c1ccccc1` (stereo not given) gave Rango release inh -24%, Rango-impB inh 4.9%, miR-21 reporter -3% and GLA inh pH 4.5 4.
For Cn1c(=O)c(C(=O)CN2CCCCCC2)c(N)n(Cc2ccccc2)c1=O the results were Rango release inh -1%, Rango-impB inh 2.7%, miR-21 reporter -3% and GLA inh pH 4.5 4[21.1 µM].
Screening CCCCNC(=O)COC(=O)c1cc(Br)ccc1Cl returned Rango release inh -16%, Rango-impB inh 4.5%, miR-21 reporter -3% and GLA inh pH 4.5 -7.
For C=C(C)C(=O)N1CC2(CC(c3cccc(NC(=O)/C=C\C)c3)=NO2)C[C@H]1C(N)=O (stereo not given in full) the results were Rango release inh 15%, Rango-impB inh -3.3%, miR-21 reporter 1% and GLA inh pH 4.5 5.
Screening O=C1CCCCC1Sc1nnc(Nc2ccccc2)s1 (stereo not given) returned Rango release inh -22%, Rango-impB inh 2.9%, miR-21 reporter -52% and GLA inh pH 4.5 2.
Screening C/C(=N\NC(=O)c1c(Br)c(C)nn1C)c1cccc(NC(=O)c2ccccc2F)c1 returned Rango release inh 26%, Rango-impB inh -0.2%, miR-21 reporter -32% and GLA inh pH 4.5 1.
`COCCN1C(=O)N(c2ccc(OC)cc2)C(=O)C1CC(=O)Nc1cccc(F)c1` (stereo not given) gave Rango release inh -11%, Rango-impB inh -0.9% and miR-21 reporter -2%.
For COc1ccccc1NC(=S)NCc1cccs1 the results were Rango release inh 0%, Rango-impB inh -3.7%, miR-21 reporter -1% and GLA inh pH 4.5 -10.
For O=c1nc2onnc2c(C=NO)[nH]1 the results were Rango release inh -6% and Rango-impB inh 0.2%.
COc1cc(OC)cc(C(=O)NC(C(=O)Nc2ccc3c(c2)OCO3)C(C)C)c1 (stereo not given) was read as Rango release inh 5% and Rango-impB inh -0.4%.

Brought forward from above: 6 entries, followed by the next part.
Screening O=C1CCCCC1Sc1nnc(Nc2ccccc2)s1 (stereo not given) returned Rango release inh -22%, Rango-impB inh 2.9%, miR-21 reporter -52% and GLA inh pH 4.5 2.
Screening C/C(=N\NC(=O)c1c(Br)c(C)nn1C)c1cccc(NC(=O)c2ccccc2F)c1 returned Rango release inh 26%, Rango-impB inh -0.2%, miR-21 reporter -32% and GLA inh pH 4.5 1.
`COCCN1C(=O)N(c2ccc(OC)cc2)C(=O)C1CC(=O)Nc1cccc(F)c1` (stereo not given) gave Rango release inh -11%, Rango-impB inh -0.9% and miR-21 reporter -2%.
For COc1ccccc1NC(=S)NCc1cccs1 the results were Rango release inh 0%, Rango-impB inh -3.7%, miR-21 reporter -1% and GLA inh pH 4.5 -10.
For O=c1nc2onnc2c(C=NO)[nH]1 the results were Rango release inh -6% and Rango-impB inh 0.2%.
COc1cc(OC)cc(C(=O)NC(C(=O)Nc2ccc3c(c2)OCO3)C(C)C)c1 (stereo not given) was read as Rango release inh 5% and Rango-impB inh -0.4%.
For COc1cc(/C=C2\SC(=S)N(C(Cc3ccccc3)C(=O)O)C2=O)ccc1O (stereo not given) the results were Rango release inh inconclusive, Rango-impB inh inconclusive, miR-21 reporter 1% and GLA inh pH 4.5 5.
For CC(C)[C@@H](C(=O)N[C@@H](Cc1ccccc1)C(=O)O)N1C(=O)N2CCc3c([nH]c4ccccc34)[C@@]2(C)C1=O the results were Rango release inh 12%, Rango-impB inh -4.4% and miR-21 reporter 2%.
`Cc1cc(C)n(CC(C)O)c(=O)c1C#N` (stereo not given) gave Rango release inh 11%, Rango-impB inh -4.5%, miR-21 reporter -5% and GLA inh pH 4.5 5.
For c1nc(N2CCC3(CC2)OCCO3)c2[nH]cnc2n1 the results were Rango release inh 0%, Rango-impB inh 0.3%, miR-21 reporter -14% and GLA inh pH 4.5 -4.
O=C(COC(=O)c1cc(-c2cccs2)nc2ccccc12)NC1CCS(=O)(=O)C1 (stereo not given) was read as Rango release inh -1%, Rango-impB inh inconclusive, miR-21 reporter 0% and GLA inh pH 4.5 3.
`COc1ccc(Nc2nnc(Cc3ccccc3)c(=O)[nH]2)c(OC)c1` gave Rango release inh -9%, Rango-impB inh 8.0%, miR-21 reporter -7% and GLA inh pH 4.5 1.
`CCOC(=O)c1cc2c(=O)n3ccccc3nc2n(Cc2ccc(Cl)cc2)c1=N` gave Rango release inh inconclusive and Rango-impB inh inconclusive.
For COC(=O)CN1C(=O)NC2(CCCc3ccccc32)C1=O (stereo not given) the results were Rango release inh 1%, Rango-impB inh 0.0% and miR-21 reporter 1%.
Screening Cc1cc(C)c(C)c(S(=O)(=O)N2CCC(C(=O)OCC(=O)NC3CCS(=O)(=O)C3)CC2)c1C (stereo not given) returned Rango release inh -9% and Rango-impB inh inconclusive.
O=S(=O)(Nc1ccc(-c2ccc3nncn3n2)cc1)c1ccccc1F was read as Rango release inh -16% and Rango-impB inh 0.1%.
O=C(CSc1nnnn1C1CC1)Nc1ccc(S(=O)(=O)N2CCOCC2)cc1 was read as Rango release inh -4% and Rango-impB inh -2.9%.
Screening COc1cccc(C(=O)NCCCn2ccnc2)c1 returned Rango release inh 6%, Rango-impB inh -0.8%, miR-21 reporter 0% and GLA inh pH 4.5 6.
Screening O=C(CNCc1ccccc1)NCCCN1CCCC1=O returned Rango release inh 14%, Rango-impB inh -0.5% and miR-21 reporter -1%.
CC(=O)NCc1ccc(S(=O)(=O)N/N=C/c2ccccc2)cc1 was read as Rango release inh -5%, Rango-impB inh 4.1%, miR-21 reporter -9% and GLA inh pH 4.5 -2.
For CCOc1ccc(-c2csc(NC(=O)c3ccc(S(=O)(=O)N4CCc5ccccc5C4)cc3)n2)cc1 the results were Rango release inh -13%, Rango-impB inh 0.1%, miR-21 reporter -1% and GLA inh pH 4.5 5.
For Cc1ccc(C)c(NS(=O)(=O)c2ccc(OCC(=O)NCc3ccccn3)cc2)c1 the results were Rango release inh 19%, Rango-impB inh 0.3%, miR-21 reporter 4% and GLA inh pH 4.5 5.
For COc1cc(CO)cc(-c2cc(CO)cc(OC)c2OC)c1OC the results were Rango release inh 1%, Rango-impB inh -1.9%, miR-21 reporter -4% and GLA inh pH 4.5 7.
O=C(CSc1nc2ccccc2c(=O)n1-c1ccc(F)cc1)NC1CCS(=O)(=O)C1 (stereo not given) was read as Rango release inh -17% and Rango-impB inh 3.2%.
`NC(=NCCc1c[nH]c2ccccc12)NC(=O)c1ccc(Cl)cc1` gave Rango release inh 11%, Rango-impB inh -0.1%, miR-21 reporter 7% and GLA inh pH 4.5 0.
COc1ccc(NC(=O)NCCc2ccc(Cl)cc2)cc1OC was read as Rango release inh 13%, Rango-impB inh -2.0%, miR-21 reporter -14% and GLA inh pH 4.5 12.
O=C(Cc1ccc(Br)cc1)OCC(=O)N1CCCCCC1 was read as Rango release inh -1% and Rango-impB inh inconclusive.
CC[N+]1(C)CCC(O)(c2ccc(OC)cc2)C(C(=O)c2ccc(OC)cc2)C1 (stereo not given) was read as Rango release inh 10% and Rango-impB inh -1.8%.
Screening COc1nc(-c2cccs2)cc(-c2ccc(C)cc2)c1C#N returned Rango release inh -24%, Rango-impB inh -1.2%, miR-21 reporter -2% and GLA inh pH 4.5 22.
O=C(CSc1nc2c(c(C(F)(F)F)n1)CCc1ccccc1-2)NCc1ccco1 was read as Rango release inh 11%, Rango-impB inh -1.4%, miR-21 reporter -2% and GLA inh pH 4.5 -2.
Screening O=S(=O)(c1ccc(Br)cc1F)N1CCCCC1CCO (stereo not given) returned Rango release inh -12% and Rango-impB inh 3.8%.
Screening CCOc1cc(/C=N\NC(=O)Cn2nc([N+](=O)[O-])cc2C)ccc1OCc1cccc2ccccc12 returned Rango release inh 1%, Rango-impB inh -4.4%, miR-21 reporter -9% and GLA inh pH 4.5 -7.
`CC(C)(C)C(=O)N1CCN(c2ccc([N+](=O)[O-])cc2Cl)CC1` gave Rango release inh 0% and Rango-impB inh inconclusive.
For COC(=O)CSc1nccc(-c2cccs2)n1 the results were Rango release inh 8%, Rango-impB inh 0.1%, miR-21 reporter -9% and GLA inh pH 4.5 10.
Screening CC(C)(C)c1ccc(NC(=O)COC(=O)C2CCCC2)cc1 returned Rango release inh 1% and Rango-impB inh 0.4%.
Screening Cc1noc(C)c1COc1cccc(C(=O)Oc2ccc3c(c2)OCO3)c1 returned Rango release inh -11%, Rango-impB inh 0.4%, miR-21 reporter -12% and GLA inh pH 4.5 -27.

Copied from the results shown for reference:
Screening CC(C)(C)c1ccc(NC(=O)COC(=O)C2CCCC2)cc1 returned Rango release inh 1% and Rango-impB inh 0.4%.
Screening Cc1noc(C)c1COc1cccc(C(=O)Oc2ccc3c(c2)OCO3)c1 returned Rango release inh -11%, Rango-impB inh 0.4%, miR-21 reporter -12% and GLA inh pH 4.5 -27.

The main list resumes; the three compounds before the break are reprinted first.
For COC(=O)CSc1nccc(-c2cccs2)n1 the results were Rango release inh 8%, Rango-impB inh 0.1%, miR-21 reporter -9% and GLA inh pH 4.5 10.
Screening CC(C)(C)c1ccc(NC(=O)COC(=O)C2CCCC2)cc1 returned Rango release inh 1% and Rango-impB inh 0.4%.
Screening Cc1noc(C)c1COc1cccc(C(=O)Oc2ccc3c(c2)OCO3)c1 returned Rango release inh -11%, Rango-impB inh 0.4%, miR-21 reporter -12% and GLA inh pH 4.5 -27.
CCCc1ccc(OCC(=O)O)cc1 was read as Rango release inh -3%, Rango-impB inh -1.4%, miR-21 reporter -3% and GLA inh pH 4.5 -3.
O=c1c(Cl)c(N/N=C/c2ccc(Cl)cc2)cnn1-c1ccccc1 was read as Rango release inh 3%, Rango-impB inh -1.6%, miR-21 reporter -2% and GLA inh pH 4.5 -4.
For Cc1nc(-c2ccc3c(c2)OCO3)cs1 the results were Rango release inh -10%, Rango-impB inh -0.9%, miR-21 reporter -28% and GLA inh pH 4.5 9.
Cc1cc(C)n(-c2nc3ccccc3nc2N2CCN(C(=O)c3ccc(F)cc3)CC2)n1 was read as Rango release inh inconclusive, Rango-impB inh inconclusive, miR-21 reporter -4% and GLA inh pH 4.5 -8.
Screening CC(=O)c1ccc(S(=O)(=O)N2CCNC(=O)C2)cc1 returned Rango release inh -9% and Rango-impB inh -2.3%.
Screening CC(C)c1ccc(C2(C)NC(=O)N(CC(=O)NC3CCCC(C)C3C)C2=O)cc1 (stereo not given) returned Rango release inh -6% and Rango-impB inh -0.5%.
For N#Cc1c2n(c3c(=O)n(Cc4ccccc4)cnc13)CCCC2 the results were Rango release inh 2%, Rango-impB inh -1.8%, miR-21 reporter -16% and GLA inh pH 4.5 4.
`COc1ccc(S(=O)(=O)N(CCCN2CCCC2=O)Cc2cc3cc(C)c(C)cc3[nH]c2=O)cc1` gave Rango release inh 7%, Rango-impB inh -1.9%, miR-21 reporter 3% and GLA inh pH 4.5 3.
O=C(NCc1ccco1)c1nn(-c2ccccc2)c(=O)c2ccccc12 was read as Rango release inh 11%, Rango-impB inh -0.3%, miR-21 reporter 5% and GLA inh pH 4.5 6.
CC(=NNC(=O)c1cccc(S(=O)(=O)N2CCOCC2)c1)c1ccc(Cl)cc1 was read as Rango release inh 1% and Rango-impB inh 3.4%.
For CCn1c(SCC(=O)NC2CCCC2)nnc1-c1ccoc1C the results were Rango release inh 0%, Rango-impB inh 1.2% and miR-21 reporter -1%.
For CCCCN(C(=O)c1cc2c(s1)CCCCC2)c1c(N)n(CC(C)C)c(=O)[nH]c1=O the results were Rango release inh 3% and Rango-impB inh 0.1%.
